# Screening results (PubChem BioAssay)
# ALR H2O2 inh: human ALR oxidase inhibition via reduced H2O2; P55789; purified ALR, DTT oxidation, H2O2 HRP-luminol luminescence; inhibition, % (concentration not given with the values); hit rate 3.8% among 290,000; AID 485317;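 active = mean and each replicate at 75% or more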;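 also: stock transfer was 7.5 nL into about 7.5 µL; 0% = neutral wells and 100% = wells with inactivated enzyme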
# HNF4A DNA FP: change in binding of human HNF4 alpha to DNA; HNF4a-FITC DNA binding, fluorescence polarization, 1 h; activity change, % at 10 µM; hit rate 0.3% among 360,000; AID 1224865; in the data active = activity change above about 30%, passing the limit was not always enough;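 also: controls were the assay level and a saturating level of protein; the project sought stronger binding though the title names inhibitors; some compounds called inactive have numbers as strong as hits; positive values seem to mean higher polarization but the record does not say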
# Target sequence (P41235 whole entry, looked up): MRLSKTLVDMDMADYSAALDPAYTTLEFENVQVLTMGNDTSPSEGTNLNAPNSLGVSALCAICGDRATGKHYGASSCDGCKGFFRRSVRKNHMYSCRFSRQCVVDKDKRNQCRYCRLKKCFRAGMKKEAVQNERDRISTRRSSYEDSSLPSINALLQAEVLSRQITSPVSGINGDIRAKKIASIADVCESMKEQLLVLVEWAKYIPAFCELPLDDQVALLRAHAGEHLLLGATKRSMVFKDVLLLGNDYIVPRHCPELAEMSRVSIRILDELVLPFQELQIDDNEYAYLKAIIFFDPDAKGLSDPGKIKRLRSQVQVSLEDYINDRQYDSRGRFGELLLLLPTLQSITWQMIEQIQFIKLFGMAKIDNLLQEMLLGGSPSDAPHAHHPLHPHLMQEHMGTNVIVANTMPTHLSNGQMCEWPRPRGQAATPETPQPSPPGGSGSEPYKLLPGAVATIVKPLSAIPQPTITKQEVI
# B2AR ag: human beta-2 adrenergic receptor agonism by FAP; P07550; Am2.2-beta2AR cells, FAP receptor internalization, flow cytometry; reference of the scale not given here; response, % (no concentration beside the values); hit rate 0.43% among 340,000;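 active = response above a set limit, near 3 SD of response in nonfluorescent compounds, cut at about 42% in these data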;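 also: stock transfer was 100 nL into about 11 µL; a reference agonist was the positive control; negative values mostly stem from fluorescent compounds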
# UCH37 inh: blocks the human deubiquitinase UCH37; purified proteasome/UCH37, Ub-AMC cleavage fluorescence; inhibition, % (concentration not given with the values); hit rate 0.33% among 330,000;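 active = mean of two replicates above 20%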;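 also: 0% = compound-free wells with enzyme and 100% = wells lacking proteasome; stock transfer was 100 nL into about 20 µL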
# Target sequence (Q9Y5K5 whole entry, looked up): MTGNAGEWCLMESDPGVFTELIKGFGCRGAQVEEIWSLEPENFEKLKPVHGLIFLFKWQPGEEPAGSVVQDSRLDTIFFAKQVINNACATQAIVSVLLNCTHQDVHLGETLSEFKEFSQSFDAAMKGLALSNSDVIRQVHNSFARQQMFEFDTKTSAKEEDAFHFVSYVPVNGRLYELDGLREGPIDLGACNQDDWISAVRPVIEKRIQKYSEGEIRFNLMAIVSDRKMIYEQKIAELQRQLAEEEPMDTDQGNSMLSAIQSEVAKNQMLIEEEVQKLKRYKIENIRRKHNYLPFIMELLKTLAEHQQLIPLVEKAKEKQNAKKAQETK
#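 system = Proteasome-associated human UCH37 deubiquitinase | amount = 0.15 nM proteasome as dispensed | medium = pH 7.4 Tris-HCl (50 mM) with ovalbumin, ATP-MgCl2, DTT | incubation = 30 min preincubation with enzyme, 25 min cleavage at room temperature | detection = AMC fluorescence 355/460 nm | read-out basis = percent inhibition | controls = no-proteasome and no-compound wells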
# FGF22 binding: shifts melting point of recombinant human FGF22 | recombinant FGF22 thermal shift, SYPRO orange fluorescence; percent of sucrose octasulfate shift, DMSO zero | calls only at 9.99 µM | hit rate 1.5% among 340,000 | AID 651658;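 active = melting point raised past a set limit in the mean and every replicate; three in four hits are not shown here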
# Target sequence (Q9HCT0 whole entry, looked up): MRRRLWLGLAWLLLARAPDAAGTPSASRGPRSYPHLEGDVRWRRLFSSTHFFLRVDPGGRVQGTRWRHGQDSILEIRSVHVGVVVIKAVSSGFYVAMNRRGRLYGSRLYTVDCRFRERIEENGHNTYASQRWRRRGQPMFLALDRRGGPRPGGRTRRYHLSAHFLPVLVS
# Ecoli rRNA inh: selective bacterial rRNA inhibition in E. coli | E. coli WT GFP vs humanized-ribosome RFP mutants, fluorescence, 24 h; hits give low values; DMSO median 0, no signal -100 | GFP signal change (wild-type ribosome), % (test concentration not listed) | hit rate 1.6% among 350,000 | AID 720706;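 active = significant combined selectivity score with lowered wild-type GFP, culture density cut under 30%, mutant RFP and density less affected; inactive = any of these conditions unmet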; also: one replicate is shown; some compounds called inactive have numbers as strong as hits
# Ecoli growth: inhibitors of Escherichia coli growth. OD600, 23 h; hits give low values. OD600 absorbance (no concentration beside the values). AID 1053175. hit rate 0.21% among 330,000;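 active = OD600 absorbance below the run mean of sample wells minus 3.6 SD, in any replicate, cut at about 0.56 in these data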;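 also: stock transfer was 300 nL into about 60 µL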
# Ecoli rRNA inh OD600: also measured in Ecoli rRNA inh; calls as there; OD600 change, %; measured here: OD600 growth;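 optical density of the mix in the first replicate; 0 = DMSO median and -100 = no signal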
# Ecoli rRNA inh RFP: recorded beside Ecoli rRNA inh, whose call it bears; RFP signal change, %; measured here: RFP humanized mutant strains;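 first replicate; 0 = DMSO median and -100 = no signal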
# * = called active by the depositor; i = inactive; . = no result given. Some of the compounds tested; count on the stated rates, not on these rows.
ALR H2O2 inh	HNF4A DNA FP	B2AR ag	UCH37 inh	FGF22 binding	Ecoli rRNA inh	Ecoli rRNA inh OD600	Ecoli rRNA inh RFP	Ecoli growth	mol
-2.4	-0.6	14.3	1.4	i	-26.6*	-16.0*	2.1*	0.621	Cc1ccc(-c2nc(N3CCN(C)CC3)c3ccccc3n2)cc1
-0.8	-2.6	4.8	6.3	i	-23.6	-29.9	-11.2	0.69	O=C(OCCCc1cc2ccccc2c(=O)o1)c1ccc(F)cc1
16.2	6.1	-6.6	1.3	i	4.4	-43.1	-2.1	0.668	CC(C)(C)c1ccc(OCC(=O)N(Cc2cccs2)C2CCS(=O)(=O)C2)cc1 (stereo not drawn)
.	-1.8	.	.	i	-5.0	-26.4	-2.7	.	COc1ccccc1N(C)S(=O)(=O)c1ccc(C(=O)N(C)Cc2cccc(OC)c2OC)cc1
-8.3	15.6	-7.3	-1.0	.	.	.	.	.	C/C(NCc1cccnc1)=C(\C#N)C(=O)NCc1ccccc1
.	-2.0	-3.2	.	i	16.8	9.7	2.4	.	O=C(N/N=C/c1ccccc1Cl)c1nc2ccc([N+](=O)[O-])cc2c(=O)[nH]1
.	0.3	2.4	5.6	i	12.1	13.8	-3.1	0.633	CCOc1ccc(NC(=O)COC(=O)c2cc(=O)c3ccccc3o2)cc1
6.1	1.6	-0.3	.	.	.	.	.	.	COc1ccc(C(=O)NC(=S)NC2CCSC2=O)cc1 (stereo not drawn)
-5.3	-0.8	15.2	4.8	.	.	.	.	0.736	CC(=O)N(CC1CCCO1)C1(C(=O)NC2CCCC2)CCCCC1 (stereo not drawn)
-11.5	-0.2	-26.1	5.3	i	6.5	10.3	2.5	0.73	CC(=O)Nc1ccc(NC(=O)COc2ccc(-c3ccccc3)cc2)cc1
-4.7	1.1	8.2	4.1	i	12.7	0.7	1.4	0.708	Cc1cc(C(=O)COC(=O)c2ccc(N)cc2)c(C)n1-c1c(C)n(C)n(-c2ccccc2)c1=O
-0.2	-0.7	-10.6	2.1	.	.	.	.	0.715	C=CCN1CCN(C(CC(C)C)c2nnnn2CCOC)CC1 (stereo not drawn)
-2.8	1.5	-2.7	.	.	.	.	.	.	Cc1nc2ccccn2c1C(=O)N/N=C/c1ccc2c(c1)OCO2
-5.6	-1.6	-5.2	-1.3	.	-1.7	12.1	-4.9	0.679	OC1(c2ccc3c(c2)OCO3)CCN(Cc2ccc(F)cc2)CC1
6.2	-0.9	-6.0	0.6	.	.	.	.	.	NNC(=O)Cn1c(COc2ccc(Cl)cc2)nc2ccccc21
-1.7	-0.3	-1.1	0.5	.	.	.	.	0.75	COCCNC(=O)CC(NS(=O)(=O)c1ccc(C)cc1)c1ccco1 (stereo not drawn)
-3.3	2.1	-2.9	2.5	i	-2.2	-4.3	16.8	0.749	O=C(c1ccc(CSc2nc3ccncc3[nH]2)cc1)N1CCN(c2cccc(Cl)c2)CC1
0.2	1.3	7.6	1.4	i	-16.6	-37.9	0.5	0.68	CN(CC(=O)Nc1ccc(Cl)c(Cl)c1)C(=O)c1cccc2cccnc12
-15.6	-1.0	-0.5	-8.1	.	.	.	.	0.752	COc1ccc(-c2cc(C(=O)NCc3ccccc3)no2)cc1OC
-7.0	0.2	-8.8	2.1	i	-7.2	2.3	-3.4	0.688	N/C(CN1CCCC1=O)=N\OC(=O)c1ccc(Cl)c(Cl)c1
-3.1	4.2	13.8	2.3	i	-11.6	-9.5	0.2	0.693	COc1ccc(CCNC(=O)c2ccc(CS(=O)(=O)Cc3cccc(C)c3)o2)cc1OC
-4.6	3.9	-1.7	-0.8	i	12.8	9.0	3.4	0.692	CC(=O)c1cccc(NC(=O)C2CC(=O)N(C3CCCC3)C2)c1 (stereo not drawn)
-4.1	1.8	4.4	1.0	i	4.8	6.8	-3.0	0.693	Cn1c(CC(=O)NNC(=O)c2ccccc2F)nc2ccccc21
21.6	-1.1	-5.6	0.9	i	16.4	8.0	6.1	0.605	Cc1cc(C)cc(C(=O)Nn2cnnc2)c1
-13.3	-4.5	1.0	.	i	13.8	21.6	0.9	.	COc1ccc(C2/C(=C(/O)c3ccc(F)cc3)C(=O)C(=O)N2c2ccccn2)cc1OC (stereo not drawn)
-2.1	-0.1	1.1	.	i	12.1	6.5	2.9	.	Nc1nonc1-n1nnc(C(=O)N/N=C/c2cccc(Cl)c2)c1-c1ccc2c(c1)OCO2
-3.2	1.3	1.3	1.4	i	-18.8	-20.8	0.6	0.688	O=C(CCc1nnc(CCCCc2ccccc2)o1)NCc1cccc(F)c1
-2.8	0.9	5.4	11.5	.	.	.	.	0.679	CCCCNC(=O)CN1CCC2(O)CCCCC2C1c1ccccc1OC (stereo not drawn)
-2.6	0.4	20.7	-2.0	i	1.0	7.3	-2.5	0.654	CNS(=O)(=O)c1cccc(C(=O)NCC(c2ccco2)N(C)C)c1 (stereo not drawn)
19.1	2.0	-4.5	-0.9	.	.	.	.	0.714	CCOC(=O)C(NC(=O)NCc1ccc(F)cc1)(OCC)C(F)(F)F (stereo not drawn)

# Next part:
ALR H2O2 inh	HNF4A DNA FP	B2AR ag	UCH37 inh	FGF22 binding	Ecoli rRNA inh	Ecoli rRNA inh OD600	Ecoli rRNA inh RFP	Ecoli growth	mol
-2.6	-0.1	-5.3	-0.4	i	1.3	1.7	4.7	0.665	CC(=O)N(CCc1cccc(C)c1)Cc1cc2ccc(C)cc2[nH]c1=O
.	3.2	.	.	i	8.1	5.6	1.7	.	COc1cc(OC)c(C(=O)Nc2cc(S(=O)(=O)N3CCOCC3)ccc2N2CCOCC2)cc1OC
-11.8	-4.5	1.5	1.7	i	-22.1	-27.6	-0.1	0.636	O=S(=O)(Nc1nc(-c2ccccc2)cs1)c1cccc(C(F)(F)F)c1
-6.6	1.5	-0.7	5.7	i	0.4	4.5	-0.8	0.647	O=C(COc1ccc([N+](=O)[O-])cc1)NCC(c1cccs1)N1CCOCC1 (stereo not drawn)
.	-1.7	.	.	i	0.6	-2.9	-0.6	.	CCCCCC(=O)N1C[C@@H](n2cc(C3CC3)nn2)[C@H](O)C[C@@H]1c1ccccc1
-48.1	6.4	5.7	1.7	i	-49.2	-72.7	-19.6	0.649	O=C(COc1ccc(Br)cc1Cl)c1ccc[nH]1
-7.3	2.8	3.1	2.7	i	-14.6	-23.6	-0.9	0.648	O=C(NCCOc1ccc(Cl)cc1)c1cccc(S(=O)(=O)N2CCCC2)c1
-7.2	-1.4	4.6	1.4	.	.	.	.	0.734	Cc1ccc(NC(=O)CCSc2nnnn2-c2ccc3c(c2)OCO3)cc1C
.	-3.2	-2.5	-21.1	i	-2.6	-2.8	-7.7	0.654	NC(=O)c1cnccc1C=Cc1ccccc1
-3.2	1.7	3.7	-1.9	.	.	.	.	0.631	CC(=O)c1c(C)[nH]c(C(=O)NCc2ccccc2Cl)c1C
-9.1	-0.2	-4.8	4.1	i	0.3	-4.2	-8.7	0.686	O=C(CSc1nnc(NC2CCCCC2)s1)NCc1ccco1
-6.7	1.0	-4.0	1.8	i	-4.8	13.0	4.5	0.653	CC1(C)Cc2c(sc3nc(C4CC4)n(N)c(=O)c23)CO1
.	-1.5	-4.2	6.5	.	.	.	.	0.67	CC(C)CNC(=O)COC(=O)c1ccc([N+](=O)[O-])cc1Cl
.	-4.3	4.0	0.7	.	.	.	.	0.646	Cn1nnnc1SCC(=O)Nc1ccccc1-c1ccccc1
.	3.8	-4.0	5.4	i	-10.6	-15.5	-0.2	0.679	Cc1ccc(CNC(=O)CCNS(=O)(=O)c2cccc3nsnc23)cc1
0.4	-4.0	4.6	4.8	i	8.3	13.8	0.8	0.659	CCn1ncc([N+](=O)[O-])c1C(=O)Nc1ccc(C)c(C)c1
-0.5	0.9	-10.1	0.2	i	-3.1	-1.8	4.2	0.687	O=C(O)C1C2CCCCC2=C2CCCCC2C1C(=O)c1ccccc1 (stereo not drawn)
-1.6	3.5	6.3	2.9	i	18.8	21.2	17.2	0.685	CNC(=S)NNC(=O)c1oc2nc(-c3ccccc3)cc(-c3ccco3)c2c1N
40.5	3.8	4.5	1.5	i	-5.0	-3.2	7.5	0.619	COc1ccc(NC(=O)CN(C)CC(=O)Nc2sc3c(c2C(N)=O)CCC3)cc1
3.9	0.9	2.0	.	.	.	.	.	.	BrC(=C\c1ccccc1)/C=N/N1CCN(Cc2ccccc2)CC1
-6.1	-3.7	-5.0	-0.5	i	-10.7	3.3	-0.9	0.627	O=c1nc2sc3ccccc3n2c(=O)n1-c1ccc(Cl)cc1
-16.6	6.2	-6.6	-96.1	.	.	.	.	0.637	CNC(=S)N(Cc1ccco1)Cc1cc2cc(OC)ccc2[nH]c1=O
.	1.0	.	.	i	-12.2	-0.5	8.1	.	COc1ccc(CCN2C(=O)CSCC2(C)C(=O)Nc2ccc3c(c2)OCCO3)cc1OC (stereo not drawn)
.	1.3	-5.0	.	i	-11.9	-12.9	4.1	.	S=C(c1cccs1)N1CCN(c2ccccc2)CC1
.	3.7	.	.	i	16.0	14.4	3.5	.	CC1(c2nc3ccccc3cc2C#N)OCCO1
.	-0.1	-1.2	-0.2	i	-5.9	-0.6	1.3	0.663	O=C(NC1CCCC1)c1cc(-c2ccccc2O)on1

# Arranged by value in Ecoli rRNA inh RFP (lowest first): three of the compounds above
ALR H2O2 inh	HNF4A DNA FP	B2AR ag	UCH37 inh	FGF22 binding	Ecoli rRNA inh	Ecoli rRNA inh OD600	Ecoli rRNA inh RFP	Ecoli growth	mol
-9.1	-0.2	-4.8	4.1	i	0.3	-4.2	-8.7	0.686	O=C(CSc1nnc(NC2CCCCC2)s1)NCc1ccco1
-6.6	1.5	-0.7	5.7	i	0.4	4.5	-0.8	0.647	O=C(COc1ccc([N+](=O)[O-])cc1)NCC(c1cccs1)N1CCOCC1 (stereo not drawn)
.	3.7	.	.	i	16.0	14.4	3.5	.	CC1(c2nc3ccccc3cc2C#N)OCCO1

# Reprinted from above, 12 compounds:
ALR H2O2 inh	HNF4A DNA FP	B2AR ag	UCH37 inh	FGF22 binding	Ecoli rRNA inh	Ecoli rRNA inh OD600	Ecoli rRNA inh RFP	Ecoli growth	mol
.	3.8	-4.0	5.4	i	-10.6	-15.5	-0.2	0.679	Cc1ccc(CNC(=O)CCNS(=O)(=O)c2cccc3nsnc23)cc1
0.4	-4.0	4.6	4.8	i	8.3	13.8	0.8	0.659	CCn1ncc([N+](=O)[O-])c1C(=O)Nc1ccc(C)c(C)c1
-0.5	0.9	-10.1	0.2	i	-3.1	-1.8	4.2	0.687	O=C(O)C1C2CCCCC2=C2CCCCC2C1C(=O)c1ccccc1 (stereo not drawn)
-1.6	3.5	6.3	2.9	i	18.8	21.2	17.2	0.685	CNC(=S)NNC(=O)c1oc2nc(-c3ccccc3)cc(-c3ccco3)c2c1N
40.5	3.8	4.5	1.5	i	-5.0	-3.2	7.5	0.619	COc1ccc(NC(=O)CN(C)CC(=O)Nc2sc3c(c2C(N)=O)CCC3)cc1
3.9	0.9	2.0	.	.	.	.	.	.	BrC(=C\c1ccccc1)/C=N/N1CCN(Cc2ccccc2)CC1
-6.1	-3.7	-5.0	-0.5	i	-10.7	3.3	-0.9	0.627	O=c1nc2sc3ccccc3n2c(=O)n1-c1ccc(Cl)cc1
-16.6	6.2	-6.6	-96.1	.	.	.	.	0.637	CNC(=S)N(Cc1ccco1)Cc1cc2cc(OC)ccc2[nH]c1=O
.	1.0	.	.	i	-12.2	-0.5	8.1	.	COc1ccc(CCN2C(=O)CSCC2(C)C(=O)Nc2ccc3c(c2)OCCO3)cc1OC (stereo not drawn)
.	1.3	-5.0	.	i	-11.9	-12.9	4.1	.	S=C(c1cccs1)N1CCN(c2ccccc2)CC1
.	3.7	.	.	i	16.0	14.4	3.5	.	CC1(c2nc3ccccc3cc2C#N)OCCO1
.	-0.1	-1.2	-0.2	i	-5.9	-0.6	1.3	0.663	O=C(NC1CCCC1)c1cc(-c2ccccc2O)on1
